gsp agonist: gsp mutant agonism | gsp mutant cells, cAMP HTRF, 30 min; control for the full effect not named in the record | Potency, µM (top dose mostly 76.9 µM), for the others: at the top dose activation (cAMP increase), actives largely listed as activators | actives 0.13% (n = 340,000) | AID 624287; active = well fitted activation curve with a large enough effect; inconclusive = small, poorly fitted or top-dose-only effect, or another doubt; inactive = no such curve, though single readings can be large or run the other way; cell line not stated here;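 note: phosphodiesterase inhibitor Ro 20-1724 added with compounds to block cAMP breakdown; potency is the fitted concentration of half-maximal effect; nearly all actives have a fitted effect of over 60% in size; about a fifth of the inactives were tested at one dose only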
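Cells stably selected in G418 were plated at 2000/well, grown 16-24 hr, then given compounds in DMSO with the PDE inhibitor […] (300 uM solution added) for 30 min at 37C; cAMP was read by HTRF.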
Menin-MLL FL inh: menin-MLL binding inhibition, fluorescein peptide | Fluorescence polarization, fluorescein-MLL peptide displacement from menin | FP activity change, % at 61.4 µM | 290,000 tested, under 10 active; inconclusive = falling polarisation curve, or a change in total fluorescence; inactive = total fluorescence flat and polarisation flat or rising; no compound was filed as active; the % refers to the polarisation; negative = inhibition;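 note: % of control where 0% means no effect; inhibitors lower the polarisation; unlabelled MLL peptide was the positive control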
gsp antagonist: gsp mutant antagonism. gsp-mutant cells, cAMP HTRF, 30 min; control for the full effect not named in the record. Potency, µM (doses to about 76.9 µM), for inactives: at the highest dose activity change, negative = inhibition, usual class: inhibitors. actives 0.4% (n = 340,000); active = falling curve of any shape with a large fitted effect; inconclusive = falling curve, mostly with a smaller effect; inactive = flat or rising curve; cell line not stated here;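 note: intracellular cAMP measured with PDE inhibitor Ro 20-1724 present during compound exposure; potency is the fitted concentration of half-maximal effect; % is set by controls: 0 for no effect and ±100 for the full control effect; nearly all actives have a fitted effect of over 65% in size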
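HTRF cAMP read-out (cAMP-d2 plus anti-cAMP antibody-K in lysis buffer, 30 min RT). Before lysis, cells are exposed to compounds with […] for 30 min at 37C in DPBS containing Ca/Mg, BSA and Tween 20.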
TRPML1 inh: human mucolipin-1 channel inhibition; Q9GZU1; TRPML1-inducible cells, Ca2+ dye fluorescence, FDSS; hits give low values; inhibition of EC80 agonist-evoked calcium signal; activity change, negative = inhibition, % (test concentration not listed); actives 0.02% (n = 390,000); in the data active means activity change below about -50%; inconclusive means about -30% to -50%; inactive means above about -30%;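 note: stimulus is agonist 54-4 at its EC80 concentration; % is set by controls: 0 for no effect and ±100 for the full control effect; compound concentration not given in the record; the text of the record puts the active cut at -80%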
Target sequence (Q9GZU1 whole entry, looked up): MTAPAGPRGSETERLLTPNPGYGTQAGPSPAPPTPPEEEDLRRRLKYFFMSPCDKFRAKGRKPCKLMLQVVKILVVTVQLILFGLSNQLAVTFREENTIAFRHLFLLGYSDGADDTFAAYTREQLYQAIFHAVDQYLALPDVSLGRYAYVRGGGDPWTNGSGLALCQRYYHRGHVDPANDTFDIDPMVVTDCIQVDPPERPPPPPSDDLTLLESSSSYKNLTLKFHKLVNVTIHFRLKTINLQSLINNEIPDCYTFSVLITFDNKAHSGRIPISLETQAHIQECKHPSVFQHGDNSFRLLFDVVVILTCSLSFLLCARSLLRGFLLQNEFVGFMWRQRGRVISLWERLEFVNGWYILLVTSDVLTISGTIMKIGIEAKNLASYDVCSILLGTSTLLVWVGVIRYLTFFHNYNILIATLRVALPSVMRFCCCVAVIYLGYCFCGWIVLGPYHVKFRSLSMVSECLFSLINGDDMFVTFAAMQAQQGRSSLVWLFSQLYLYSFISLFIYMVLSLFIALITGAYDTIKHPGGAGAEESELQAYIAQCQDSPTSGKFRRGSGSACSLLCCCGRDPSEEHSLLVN
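TRPML1-DL cells, Tet-induced overnight (~16 h, 37 °C) at 1,500 cells/well, were loaded with Ca8 no-wash dye plus quencher for 45-90 min at room temperature. Compounds were pinned during FDSS kinetic reading; agonist 54-4 at EC80 (4 uM final) then added.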
ClpP mod: qHTS Assay for Activators of ClpP; purified B. subtilis ClpP, FRET peptide cleavage, 20 min; Potency, µM (doses to about 57.5 µM), for inactives: top-dose activity change, negative = active; actives 1.9% (n = 340,000); AID 651965, 2013; active = well fitted falling curve with a large enough effect; inconclusive = small, poorly fitted or top-dose-only effect; inactive = no such curve, though single readings can be large or run the other way; note: potency is the fitted concentration of half-maximal effect; the source files actives as falling curves though it sought activators and does not explain the sign; nearly all actives have a fitted effect of over 65% in size; many hits overshoot -100%
Target sequence (P80244 whole entry, looked up): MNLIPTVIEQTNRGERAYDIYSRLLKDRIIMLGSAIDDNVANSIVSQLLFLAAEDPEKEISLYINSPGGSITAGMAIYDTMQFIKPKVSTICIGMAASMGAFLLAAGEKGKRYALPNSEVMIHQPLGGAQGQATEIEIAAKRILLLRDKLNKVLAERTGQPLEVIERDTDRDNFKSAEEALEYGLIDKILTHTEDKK
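Buffer: 100 mM Tris/HCl pH8, 100 mM KCl, 0.05% low protease BSA, 2.5% glycerol, 0.01% Tween-20. ClpP 10 microg/mL final; 20 min RT; delta FRET normalized to ADEP and DMSO controls.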
TRPML1 ag: human mucolipin-1 channel agonism; AID 624414; activation, % (no concentration beside the values); Q9GZU1; actives 0.12% (n = 410,000); TRPML1-expressing cells, Ca2+ dye fluorescence, FDSS; host cell line not named in the record; reference of the full effect not given here; in the data active = activation above about 50%; inconclusive = about 30% to 50%; inactive = below about 30%; note: 0% is about no effect; the text of the record puts the active cut at 80%
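TRPML1-DL cells, Tet-induced overnight (~16 h, 37 degrees C), loaded 45-90 min at room temperature with Ca8 no-wash calcium dye plus quencher. FDSS fluorescence: 10 s baseline, compound pin-transfer, 110 s agonist read, then EC80 54-4 (4uM final) and 110 s antagonist read.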
Active calls of the source: *; ? = inconclusive; · = not tested or not shown; [ ] = remark or other dose.

Results follow in this order: gsp agonist	Menin-MLL FL inh	gsp antagonist	TRPML1 inh	ClpP mod	TRPML1 ag
> COc1ccc(OC(=O)c2cc(S(=O)(=O)N3CCCC3)ccc2Cl)cc1
  -32.2%[inhibitor]	4.3	-15.3%	-4.9	-3.3%	-0.1
> Cc1ccccc1CN(C)CC(=O)Nc1c(C)cccc1C(C)C
  -52.0%[inhibitor]	-0.5	-9.6%	24.5	·	3.2
> Cc1ccc(C(=O)NCCCNC(=O)Cc2ccc(Cl)cc2)cn1
  -14.5%[15.4 µM]	·	3.7%	15.6	?	-0.3
> COc1ccc(C(=O)NCC(=O)N/N=C(C)\C=C\c2ccccc2)cc1OC
  ?	0.5	-1.7%	16.4	0.9%	3.8
> CC(C)CC(NC(=O)CC12CC3CC(CC(C3)C1)C2)C(=O)NC1=NCCS1 (configuration not stated)
  5.5%[15.4 µM]	-0.2	·	15.0	·	0.3
> Cc1[nH]c2ccccc2c1NC(=O)CN1CCN(c2cccc(C(F)(F)F)c2)CC1
  -26.9%	0.4	50.1µM*	27.2	-1.2%	4.4
> CSCC[C@@H](C(=O)NCc1cccs1)N1Cc2ccccc2C1=O
  -32.9%[inhibitor]	2.0	4.6%	-6.1	-1.5%	0.1
> CC[n+]1c(P(=O)([O-])c2ccccc2)[nH]c2ccccc21
  26.5%	-0.2	7.8%	0.0	1.0%	-0.6
> COCC(=O)Nc1ccc(N2CCOCC2)c(S(=O)(=O)Nc2ccc(OC)cc2)c1
  -78.8%	·	11.4%	-8.0	2.3%	-0.2
> NNC(=O)C=C1CCN(c2ncc(C(F)(F)F)cc2Cl)CC1
  -3.1%	-2.9	7.5%	-6.9	-17.6%	-0.3
> CCOc1ccc(C2=NC(c3cccs3)=Nc3ccc(CC)cc3N2)cc1OCC
  ·	·	·	10.5	1.4%	-0.1
> Cc1cc(S(=O)(=O)N2CCOCC2)ccc1OCC(=O)N1CCCCC1
  -8.0%[15.4 µM]	2.6	12.8%	10.8	-2.0%	-1.0
> S=C(CN1CCCC1=S)N1CCOCC1
  -5.2%[15.4 µM]	·	-7.6%	14.6	-0.4%	0.2
> Cc1ccccc1C(=O)Nc1nc(SCc2ccc(Cl)cc2)n[nH]1
  -7.9%[15.4 µM]	-5.1	-12.8%	-9.1	·	0.0
> CC1CCN(S(=O)(=O)c2ccc3c(c2)N(CC(=O)NCCN2C(C)CCCC2C)C(=O)CS3)CC1 (configuration not stated)
  2.2%	·	6.1%	6.2	-0.6%	0.0
> Cc1cc(Cl)c(S(=O)(=O)N2CCN(c3ccccn3)CC2)cc1OCC(=O)NC1CCCCC1
  -14.2%	-1.4	?	-5.1	-2.4%	0.6
> COc1ccccc1CNC(=O)CCc1c(C)nc2c(c(C)nn2-c2ccc(C)c(C)c2)c1C
  ·	·	·	7.8	4.2%	1.4
> NC(=O)C1(N2CCCCC2)CCN(S(=O)(=O)c2cc(Cl)ccc2Cl)CC1
  -30.7%	1.4	-9.9%	0.3	-2.0%	1.3
> COc1ccc(-c2noc(CN(C)C(=O)c3ccc4c(c3)OCO4)n2)cc1OC
  18.5%[15.4 µM]	-0.2	-20.6%	9.9	-1.8%	-1.4
> O=C(COc1ncnc2ccccc12)NCCCN1CCCC1=O
  7.8%	1.5	20.7%	-5.4	?	-1.0
> O=C(CN1C(=O)/C(=C\c2ccccc2Cl)Oc2ccccc21)NCc1cccnc1
  -28.6%[15.4 µM]	-1.5	-10.7%	13.1	·	0.4
> COc1ccc(S(=O)(=O)n2cnc(C)c2)cc1
  1.6%[15.4 µM]	-3.2	-6.2%	12.1	·	-0.7
> CC(C)(C)N1CC(OC(N)=O)C1
  -4.1%	-6.4	7.5%	-4.7	0.6%	0.1
> CCOC(=O)c1c(-c2ccccc2)csc1NC(=O)CCN1C(=O)c2ccccc2C1=O
  -51.9%[inhibitor]	-1.9	6.6%	10.7	0.7%	-0.5
> O=C(c1ccco1)N1N=C(c2ccc3nccnc3c2)CC1c1ccccc1 (configuration not stated)
  11.2%	-4.9	?	9.9	-0.7%	3.9
> COc1ccc(Nc2nc(-c3cccs3)nc3ccccc23)cc1
  -1.5%	8.9	-13.2%	14.6	33.8%	2.0
> O=C(CCSc1ccc(Cl)cc1)c1ccco1
  20.3%	-1.4	6.3%	-0.5	-0.8%	1.7
> O=C(c1cccc(Br)c1)c1coc2ccc(O)cc12
  0.7%	·	-10.3%	0.5	-0.2%	0.2
> Cc1ccc(Nc2ncc3c(n2)CC(C)(C)CC3=O)cc1
  7.6%	0.5	-17.9%	6.6	-8.0%	-0.3
> Cc1nn(Cc2ccccc2Cl)c(C)c1NC(=O)C1C2CCC(O2)C1C(=O)O (configuration not stated)
  -18.7%	4.9	8.4%	3.8	-24.6%	-0.2
> CCCNC(=O)COc1cccc(C(=O)NCc2ccccc2)c1
  ?	1.8	5.9%	-5.0	-1.4%	1.0
> CC1(C)C(=O)Nc2ccccc2N1C(=O)COc1ncnc2c(Cl)cc(Cl)cc12
  9.0%	5.9	-10.5%	45.0	-1.8%	2.9
> COc1ccc(C(CNC(=O)CNC(=O)c2cccc(C)c2)N2CCOCC2)cc1 (configuration not stated)
  -33.7%[inhibitor]	·	-11.4%	-5.9	0.6%	0.8
> O=C(Nc1cccc([N+](=O)[O-])c1)c1[nH]ncc1Cl
  -14.8%	3.8	0.3%	-10.6	-2.6%	-0.4
> CC(C)(C)c1ccc2c(c1)OC(C(=O)N/N=C\c1ccccn1)CO2 (configuration not stated)
  -45.6%[inhibitor]	·	3.4%	-10.8	-1.9%	1.5
> N/C(=N\NC(=O)c1ccccc1)c1cc2ccccc2oc1=O
  -10.4%	2.3	60.4%[activator]	14.8	-24.3%	-0.3
> O=C(NCc1cccc(F)c1)c1ccccc1NC(=O)c1nsc2ccccc12
  ·	·	·	?	28.2µM*	2.7
> C[C@H]1Cn2cnc(C(=O)NCc3ccc(CNC(=O)OC(C)(C)C)cc3)c2C(=O)N1
  -61.7%[inhibitor]	·	·	-0.1	1.3%	-0.3
> COCCc1nc2ccc(C(=O)N(C)Cc3cccc(-n4nc(C)cc4C)c3)cc2o1
  -1.9%	·	-13.3%	14.2	0.4%	0.9
> COc1ccc(C(=O)N2CCC(c3nc4ccccc4o3)CC2)cc1
  ·	·	·	-6.4	-1.7%	2.4
> COc1cccc(CNC(=O)CCCn2nc(C)c3sc4ccccc4c3c2=O)c1
  ·	·	·	0.7	-4.9%	-0.2
> CCS(=O)(=O)c1ccc(O)c(NC(=O)c2cc(-c3ccccn3)nc3ccccc23)c1
  ?	·	1.7%	29.7	-1.9%	-0.4
> Cc1ccc(NC(=O)Nc2cccn(Cc3c(F)cccc3Cl)c2=O)cc1
  -51.0%[inhibitor]	4.0	-25.6%	8.3	-8.2%	5.5
> Cc1ccc(C(=O)n2ncn(C)c2=S)cc1
  -3.6%	4.5	6.6%	?	-0.1%	1.3
> COc1ccc(C(=O)NCC(=O)N2CCNC(=O)C2)cc1OC
  ?	-2.9	3.8%	10.4	·	0.9
> Cc1cc(C)n(C(=O)CNC(=O)c2ccc3c(c2)OCCO3)n1
  -57.5%[inhibitor]	-0.1	16.4%	-4.2	1.9%	-0.4
> CC1=C(C(=O)N2CCCCCC2)CC(CC(=O)NC2CCCCC2)C(=O)N1Cc1ccc(C(C)(C)C)cc1 (configuration not stated)
  ·	·	·	-12.7	0.4%	-0.3
> O=c1ccc2cc(S(=O)(=O)Nc3ccc(Br)cc3)ccc2o1
  7.9%[15.4 µM]	1.5	7.9%	-12.8	-0.8%	-0.9
> COc1ccc(/C=C/c2cccc[n+]2C)c(O)c1
  -100.9%[inhibitor]	?	?	-1.8	1.4%	0.3
> CCN=C1SC(C(=O)Nc2ccc(OC)cc2)CC(=O)N1CC (configuration not stated)
  -10.6%[15.4 µM]	0.1	4.9%	0.0	·	2.6
> CCOC(=O)COc1cc(Br)c(/C=N/Nc2ccccc2)cc1OC
  21.9%	4.8	11.7%	7.1	15.9%	0.3
> CCN1CCc2nc(NC(=O)C(c3ccccc3)c3ccccc3)sc2C1
  -41.4%[inhibitor]	-0.8	-6.1%	-5.0	-2.8%	0.7
> CCOP(=O)(c1ccc(N(C)C)cc1)C(O)c1cc(OC)c(OC)c(OC)c1 (configuration not stated)
  18.7%	3.7	3.0%	9.6	-4.4%	-1.0
> COCCN1CCN(C(=O)C2CCC(=O)N(CCc3ccc(Cl)cc3)C2)CC1 (configuration not stated)
  -4.6%	-0.3	3.8%	-14.0	-1.0%	0.2
> O=C(c1ccc2c(c1)OCO2)N1CCN=C1SCc1ccccc1
  -13.6%	0.1	-4.6%	42.1	-3.6%	-0.1
> CCCc1nn2c(=O)cc(COC(=O)c3ccc(NC(=O)c4cccs4)cc3)nc2s1
  ·	·	·	-18.5	4.8%	1.0
> O=C(Cc1ccc([N+](=O)[O-])cc1)Nc1cccc(C(=O)N2CCOCC2)c1
  -13.1%	·	3.4%	-22.5	-0.6%	0.6
> CN(CCC#N)C(=O)CC1(Cc2ccccc2)CCOC(C)(C)C1 (configuration not stated)
  ?	5.8	1.1%	·	0.1%	·
> COc1ccc(CNC(=O)Cn2nc([N+](=O)[O-])c(Br)c2C)cc1
  7.5%[15.4 µM]	-0.6	3.5%	13.0	-1.3%	0.3
> O=C(NCc1cccc(F)c1)c1ccc2nc(N3CCOCC3)sc2c1
  9.1%	-1.2	-4.0%	-9.6	-10.3%	-0.4

The list continues:
Results follow in this order: gsp agonist	Menin-MLL FL inh	gsp antagonist	TRPML1 inh	ClpP mod	TRPML1 ag
> O=C(Nc1ccc(Cl)cc1F)c1oc(=O)c2ccccc2c1-c1ccccc1
  ·	·	·	69.0	71.4%	1.8
> O=C1CSC(c2nn(-c3ccccc3)cc2-c2cc3ccccc3oc2=O)N1Cc1ccco1 (configuration not stated)
  -4.0%	6.5	-4.4%	79.6	35.5µM*	1.8
> Cc1cc(C)c(NC(=O)c2ccc(CNS(=O)(=O)c3cc(C(F)(F)F)ccc3Cl)cc2)c(C)c1
  1.9%	1.9	-8.3%	-0.4	-18.5%	0.9
> CC(=O)NC(NC(=S)Nc1ccc(N=Nc2ccccc2C)cc1C)C(Cl)(Cl)Cl (configuration not stated)
  1.4%	2.6	1.4%	4.2	-0.8%	0.9
> CCOc1ccc(-c2cc(C(=O)NCCc3ccccc3)c3c(-c4ccc(C)cc4)[nH]nc3n2)cc1
  ·	·	·	-18.1	4.3%	-0.7
> COc1cc(C)c(CN2CCCCC2CO)cc1C (configuration not stated)
  27.2%	-4.0	-5.5%	-3.0	1.5%	0.8
